Compound activity as filed in PubChem BioAssay.
Vaccinia mCherry: qHTS for Stage-Specific Inhibitors of Vaccinia Orthopoxvirus: mCherry Reporter Primary qHTS; Vaccinia virus mCherry reporter infection, fluorescence; about a quarter of the inactives have no number; Potency, µM (top dose mostly 36.5 µM), inactives show at the highest dose activity change, negative = inhibition, most hits filed as inhibitors; hit rate 0.63% among 310,000; AID 720579, 2013; active = well fitted inhibition curve with a large enough effect; inconclusive = small, poorly fitted or top-dose-only effect; inactive = no such curve, though single readings can be large or run the other way; tested in A549 cells; note: nearly all actives have a fitted effect of over 35% in size; inactives centre near -10
VACV Venus inh: qHTS for Stage-Specific Inhibitors of Vaccinia Orthopoxvirus: Venus Reporter Primary qHTS; AID 720580, 2013; hit rate 0.46% among 330,000; Vaccinia virus Venus reporter expression, fluorescence; Potency, µM (series often up to 36.5 µM), inactives show top-dose activity change, negative = inhibition, usual class: inhibitors; active means well fitted inhibition curve with a large enough effect; inconclusive means small, poorly fitted or top-dose-only effect; inactive means no such curve, though single readings can be large or run the other way; tested in A549 cells; note: nearly all actives have a fitted effect of over 30% in size; inactives centre near -10
The depositor's hits bear a star; i = inactive; ? = inconclusive; nt = not tested or not shown; [ ] = remark or other dose. % is set by controls: 0 for no effect and ±100 for the full control effect; potency is the fitted concentration of half-maximal effect.

SMILES	Vaccinia mCherry	VACV Venus inh
Cc1cn([C@H]2C[C@H](O)[C@@H](CNCc3cccn3-c3nccs3)O2)c(=O)[nH]c1=O	-13.0%	5.1%
CCC(Sc1nnc(-c2ccc(F)cc2)c(-c2ccc(F)cc2)n1)C(=O)NC1CCCC1 (stereo unspecified)	-6.5%	-7.6%
O=C(NCCCc1ccncc1)C1CCC(=O)N(Cc2ccc(Cl)cc2)C1 (stereo unspecified)	-10.8%	-10.2%
CC(C)(C)NC(=O)C1CCN(C(=O)c2ccc(-c3ccccc3)cc2)CC1	nt	-28.2%
O=c1c(O)cc(C2Oc3cc(O)cc(O)c3CC2O)cc2c(C3Oc4cc(O)cc(O)c4CC3O)cc(O)c(O)c12 (stereo unspecified)	-26.9%	-19.6%
Fc1ccc(-c2[nH]ncc2CN2CCN(c3ccc(F)cc3)CC2)cc1	-13.5%	-14.3%
Nc1ccccc1C(=O)NCCCN1CCOCC1	-2.5%	-4.1%
Cc1cnc(-n2ncc(C(=O)NCc3ccccn3)c2C2CC2)nc1-c1cccs1	-19.9%	-3.1%
Cc1ccc(NC2=Nc3ccccc3CS2)cc1	nt	-18.9%
COC(=O)c1cc(S(=O)(=O)NCC2CCN(Cc3ccccc3F)CC2)c[nH]1	-6.4%	-7.4%
COc1ccccc1CNc1nc(Nc2ccccc2Cl)c2sccc2n1	7.9%	-11.3%
COc1ccccc1-c1cc2nc(C)c(CCC(=O)NCCc3cccc(C)c3)c(C)n2n1	-24.4%	-25.4%
O=C(O)c1cccc(Cn2cc(Br)cn2)c1	0.5%	-0.4%
CC1=NNC(=O)C1CC(=O)N/N=C(\C)c1ccco1 (stereo unspecified)	i	2.4%
Cc1cccn2c(=O)c(/C=C(\C#N)C(=O)NC3CCS(=O)(=O)C3)c(Oc3ccc(F)cc3)nc12 (stereo unspecified)	-6.1%	-10.3%
Cc1nnc(SCC(=O)NC2CCCC(C)C2C)n1N (stereo unspecified)	-18.8%	-7.0%
CC(=O)Nc1cccc(OCCOc2cccc([N+](=O)[O-])c2)c1	-29.7%	-12.6%
OC(c1ccccc1)c1nccn1Cc1ccccc1 (stereo unspecified)	nt	-8.0%
O=C(Cc1cccc2ccccc12)N1CC[C@@]2(O)CCCC[C@H]2C1	i	-5.6%
Oc1ccccc1CNc1ccc(OC(F)(F)F)cc1	?	?
Cc1cccc(N2CCN(S(=O)(=O)c3csc(C(N)=O)c3)CC2)c1C	?	?
CCOC(=O)c1cnn(Cc2ccccc2)c1N	-17.7%	-12.6%
CCn1ncc(Br)c1C(=O)Nc1nccs1	-21.0%	-9.0%
Cc1cc[n+](CC(=O)Nc2cc(C(F)(F)F)ccc2Cl)cc1	i	-6.0%
O=C(COC(=O)c1ccc[nH]c1=O)NC1CCCc2ccccc21 (stereo unspecified)	-5.7%	-9.8%
O=c1[nH]c(/C=C/c2ccc(OC(F)F)cc2)nc2c1cnn2-c1ccccc1	i	0.2%
Cc1nc2c(Br)c3nc(C(F)(F)F)[nH]c3c(Br)c2[nH]1	-1.6%	-14.1%
Cc1c(C(=O)Nc2nnc(SCc3ccccc3Cl)s2)cccc1[N+](=O)[O-]	i	0.2%
Cc1ccc(CNc2ccc(S(=O)(=O)N3CCOCC3)cc2[N+](=O)[O-])cc1	-11.9%	?
CN(C)/C=C/C(=O)/C=C/c1ccc(Cl)cc1	-15.1%	-22.8%
Cc1ccc(NC(=O)NCC(c2ccccc2)N(C)C)cc1 (stereo unspecified)	-8.3%	-25.9%
O=C(CSc1nc2ccc(NC(=O)CSc3nnnn3-c3ccccc3)cc2s1)Nc1ccccc1	i	-20.9%
CCOc1ccc(CCNC(=O)CCCc2nnc3n(CCCOC)c(=O)c4sccc4n23)cc1	-14.9%	-8.6%
CC(C)(C)OC(=O)C[C@H]1C/C=C\C[C@H](CC(=O)NCCO)C(=O)N2CCC[C@@H]2COC1=O	i	-8.9%
COc1ccccc1NC(=O)COc1ccc(C(=O)OCC(=O)NC(C)(C)C)cc1OC	-12.0%	-8.8%
O=C(NCCc1ccccc1)c1ccc(CS(=O)Cc2cccc(Cl)c2)o1 (stereo unspecified)	-12.9%	-2.9%

Gathered by group: those above containing a tert-butyl group (3)
SMILES	Vaccinia mCherry	VACV Venus inh
CC(C)(C)NC(=O)C1CCN(C(=O)c2ccc(-c3ccccc3)cc2)CC1	nt	-28.2%
CC(C)(C)OC(=O)C[C@H]1C/C=C\C[C@H](CC(=O)NCCO)C(=O)N2CCC[C@@H]2COC1=O	i	-8.9%
COc1ccccc1NC(=O)COc1ccc(C(=O)OCC(=O)NC(C)(C)C)cc1OC	-12.0%	-8.8%

The results go on.
SMILES	Vaccinia mCherry	VACV Venus inh
Cc1oc(C(C)(C)C)cc1C(=O)NC1CCN(Cc2ccccc2)CC1	?	-27.7%
CCOC(=O)c1ccc(NC(=O)CSc2nc(C)c(Cc3ccccc3)c(=O)[nH]2)cc1	-11.7%	-9.7%
CN(C)c1nc(SCC(=O)Nc2ccccc2)nc(N2CCOCC2)n1	i	-8.1%
O=C(NCCC1CCCCN1S(=O)(=O)c1ccc(Cl)cc1)C(=O)NCc1cccnc1 (stereo unspecified)	-28.4%	-25.1%
O=C(CSc1ncccn1)N/N=C/c1cccc([N+](=O)[O-])c1	i	-4.4%
C=CC[C@]12CCc3ccccc3C1N(c1ccc(C(=O)OCC)cc1)C2=O (stereo partly specified)	i	-7.1%
CCOC(=O)C1CCN(C(=O)c2cn(C)c(=O)c3cc(OC)c(OC)cc23)CC1	0.0%	1.3%
COc1ccccc1/C=N/NC(=O)C(=O)N1CCN(c2ccccc2OC)CC1	i	-15.3%
Cc1cc(-c2ccnc(-n3ncc(C(=O)NCC4COCCO4)c3C)n2)c(C)s1 (stereo unspecified)	-18.1%	-4.4%
CCOc1ccc(NS(=O)(=O)c2ccc(NS(=O)(=O)c3ccc(SC)cc3)cc2)cc1	-26.0%	-14.7%
CC1=CC(=O)C=C(C)C1=NOc1ccc([N+](=O)[O-])cc1	-13.0%	-17.4%
Cn1c(NC(=O)/C=C/c2ccco2)cc(=O)n(C)c1=O	-1.0%	-3.2%

Full records, quoted from the list.
O=C(CSc1ncccn1)N/N=C/c1cccc([N+](=O)[O-])c1 is listed as Vaccinia mCherry: i; VACV Venus inh: -4.4%
Cn1c(NC(=O)/C=C/c2ccco2)cc(=O)n(C)c1=O is listed as Vaccinia mCherry: -1.0%; VACV Venus inh: -3.2%

Next part
SMILES	Vaccinia mCherry	VACV Venus inh
O=S(Cc1cc(Oc2ccccc2)nc(-c2ccccc2)n1)c1ccccc1 (stereo unspecified)	-10.4%	-12.0%
Cc1cc(C)cc(OCC(=O)Nc2nc3c(s2)CC(C(C)(C)C)CC3)c1 (stereo unspecified)	-21.4%	3.9%
O=C(NCc1ccco1)C(=O)N1CCCC1	-4.8%	-16.6%
COc1ccc(CCNC(=O)Cc2c(C)c3cc4c(C(C)(C)C)coc4c(C)c3oc2=O)cc1	-9.2%	-3.9%
CC1Cc2ccccc2N1Cc1nc2cc(C(F)(F)F)ccc2c(=O)[nH]1 (stereo unspecified)	nt	?
CCC1CCCCN1S(=O)(=O)c1ccc(NC(=O)CSc2ncccc2C(=O)O)cc1 (stereo unspecified)	-20.0%	-11.4%
COc1ccc(OCCNC2CCCC2)cc1	i	-3.9%
CC(C)(C)c1ccc(S(=O)(=O)N2CCC(c3ccncc3)CC2)cc1	?	-28.9%
O=C(C[n+]1cccc(Cl)c1)c1ccc(O)c(O)c1	-7.5%	-8.0%
OCCN1CCN(c2nc(-c3ccccc3O)nc3ccccc23)CC1	?	?
FCCCOc1ccc(-c2nccc(-c3ccc(F)cc3)n2)cc1	nt	-16.7%
N#Cc1ccc(CN2C=NS(=O)(=O)c3ccccc32)cc1	-6.4%	-7.6%

Part of the list above in order of formula weight, ascending:
SMILES	Vaccinia mCherry	VACV Venus inh
Cc1ccc(NC2=Nc3ccccc3CS2)cc1	nt	-18.9%
N#Cc1ccc(CN2C=NS(=O)(=O)c3ccccc32)cc1	-6.4%	-7.6%
C=CC[C@]12CCc3ccccc3C1N(c1ccc(C(=O)OCC)cc1)C2=O (stereo partly specified)	i	-7.1%
CCOC(=O)c1ccc(NC(=O)CSc2nc(C)c(Cc3ccccc3)c(=O)[nH]2)cc1	-11.7%	-9.7%

(list continues)
SMILES	Vaccinia mCherry	VACV Venus inh
O=C(Nc1ccc2c(c1)OCCO2)C1CCN(S(=O)(=O)Cc2ccccc2)CC1	-24.2%	-14.6%
C=CCC1(Cl)C(=O)C(Cl)=C(N2CCOCC2)C1(OC)OC (stereo unspecified)	-15.6%	-5.9%
O=C1OCCC1Sc1nc2ccccc2n1Cc1ccccc1 (stereo unspecified)	-22.5%	-14.6%
Cn1c(=Nc2ccccc2)sc2ccccc21	5.0%	-3.4%
Cc1ccc(Cn2c(C(=O)O)c(CNCCc3ccco3)c3ccc(C)cc32)cc1	13.6%	-2.1%
O=S(=O)(c1ccc(-c2cc(C(F)(F)F)on2)s1)N1CCN(c2ccc(F)cc2)CC1	?	?
O=C1c2ccccc2C(=O)N1CCCOCc1c[nH]c(=O)[nH]c1=O	i	-4.2%
O=C(NCC(F)(F)F)c1[nH]c(C(F)(F)F)nc1-c1ccccc1	i	-5.1%
COc1ccc(CNC(=O)Cn2c(-c3ccccc3)cc(C(C)=O)c2C)cc1OC	-2.0%	-0.7%
O=[N+]([O-])c1ccc(CS(=O)(=O)c2ccc(Cl)cc2)cc1	-14.7%	-16.3%
CCC(=O)c1cn(CC(=O)Nc2ccc(C)cc2C)c2ccccc12	-14.6%	-25.9%
Nc1cc(=O)[nH]c(SCC(=O)Nc2cc(Cl)cc(Cl)c2)n1	-16.5%	-0.7%
Cc1ccc2nc(Cl)c3cc(C(=O)NC4CCCCCC4)sc3c2c1	-3.1%	-5.7%
Cc1ccc(Sc2ccc(N3CCCC(C(=O)Nc4ccc(Br)cc4)C3)nn2)cc1 (stereo unspecified)	-25.1%	-24.9%
O=C(N/N=C1\SCC(=O)N1CCc1ccccc1)c1cccs1	-8.2%	-19.1%
O=C(COC(=O)c1ccc(Cl)nc1)NC1CCCc2ccccc21 (stereo unspecified)	-11.8%	1.6%
Cc1nnc(NC(=O)NCN2C(=O)C3C4C=CC(C4)C3C2=O)s1 (stereo unspecified)	nt	-4.4%
CCCCn1c(N)c(N(Cc2ccccc2OC)C(=O)C2=COCCO2)c(=O)[nH]c1=O	-30.0%	-3.9%
CCOC(=O)c1cn2nc(N3CCCCC3)ccc2n1	i	-16.9%
Clc1ccc(-c2nnc3c4ccccc4nc(N4CCOCC4)n23)cc1Cl	14.7%	-23.1%
COCCNC(=O)/C(C#N)=C/c1c(N2CC(C)OC(C)C2)nc2ccccn2c1=O (stereo unspecified)	-9.4%	-2.1%
CN(C(=O)CSc1nc2ccccc2n1CCc1ccccc1)C1CCS(=O)(=O)C1 (stereo unspecified)	-25.5%	-16.9%
CCOC(=O)N1CCC(N2C(=O)c3ccccc3C2Nc2ccccc2C)CC1 (stereo unspecified)	-2.5%	-2.9%
Cc1ccc(NC(=O)CN2C(=O)CCSc3ccc(S(=O)(=O)N4CCCC4)cc32)cc1C	-7.5%[7.34 µM]	-11.9%
COc1ccc(N(CC(=O)NCc2cccnc2)S(=O)(=O)c2c(C)nn(C)c2C)cc1	i	7.8%
Cc1nn(C)cc1/C=N/NC(=O)Cn1nnc(N)n1	-8.4%	-7.1%
CN1CCN(C(=O)CCN2C(=O)S/C(=C/c3ccc(Cl)cc3)C2=O)CC1	i	-13.6%
COc1ccccc1NC(=O)c1cc(C(=O)Nc2ccccc2OC)cc(N2C(=O)CCC2=O)c1	-11.5%	-10.6%
CCOC(=O)[C@H]1[C@H]2COc3ccccc3[C@@H]2N2C(=O)c3cc(OC)c(OC)cc3NC(=O)[C@@]12C	-13.7%	-16.9%
Cc1ccccc1N(CC(=O)NCc1ccc2c(c1)OCO2)C(=O)CCC(=O)Nc1ccccn1	nt	5.6%
Cc1ccccc1OCCCCn1c(CO)nc2ccccc21	i	-13.4%
COc1ccccc1-c1nnc(SCC(=O)Nc2cc(C)on2)o1	nt	-18.7%
Cn1c(=O)n(Cc2ccccc2F)c(=O)c2c1nc1n2CCCN1CCc1ccccc1	nt	-13.4%
Cc1cc(C)c(NC(=O)COC(=O)c2ccncc2)c(C)c1	i	1.4%
O=C1NC(=O)c2cc(NC(=O)C3CCCCC3)ccc21	-4.5%	-9.3%
CCN1CCOC(=O)C1CC(=O)Nc1cc(C)ccc1OC (stereo unspecified)	-5.3%	-7.9%
CCCNC(=O)c1cc(C2CCCN(C(=O)c3ccc4c(c3)CCO4)C2)on1 (stereo unspecified)	4.3%	-2.3%
COc1ccc(C(=O)NCCn2ccc3ccccc32)cc1OC	-14.6%	-5.8%
FC(F)(F)c1ccccc1Cc1c(-c2ccc(Cl)cc2)nc2c3ccccc3ccn12	i	2.3%
Brc1ccccc1OCCN1CCCC1	-13.9%	3.3%
CCOC(=O)c1c(C)[nH]c(C(=O)CN2C(=O)NC(C)(C)C2=O)c1C	-17.7%	-12.0%
C=C1NN(CC2CC2)C(=O)N1c1ccc(OCc2ccccc2)cc1	-25.9%	-14.4%
CCn1c2ccccc2c2cc(NC(=O)N3CCOCC3)ccc21	nt	-12.4%
Cc1ccc2c(c1)N(Cc1ccncc1)C(=O)C(C)O2 (stereo unspecified)	-16.4%	-6.1%
CCOC(=O)c1c(C)oc2ncnc(N3CCN(c4ccccc4)CC3)c12	-17.6%	-20.6%
CC(=O)Nc1cccc(OCC(=O)/C=C2\N(C)c3ccccc3C2(C)C)c1	-25.5%	-14.6%
